CDC25B CDK2 inh = human CDC25B-CDK2/CyclinA binding inhibition. z-score (concentration not given with the values). P30305+P24941. HTRF CDC25B-CDK2/CyclinA binding, anti-His/anti-Flag; hits give high values. 94,000 compounds, 0.72% hits. AID 1259370;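 note: score is relative to mean and SD of negative controls; strong numbers were not always called active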
TAR Tat displ = HIV-1 TAR-Tat binding disruption. HIV-1 TAR RNA, Tat peptide displacement FRET; hits give high values. z-score (concentration not given with the values). 100,000 compounds, 0.6% hits. AID 1259389;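 note: score is relative to mean and SD of negative controls; some compounds called inactive have numbers as strong as hits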
The depositor's hits bear a star; · = not tested or not shown.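 Rule for the calls: active = z-score from 3 up in half or more of its runs; inactive = the rest.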

Under each structure: CDC25B CDK2 inh, TAR Tat displ
COc1ccc(O)c(C2=NN3C(C2)c2ccccc2OC3c2ccc(OC)c(O)c2)c1 (configuration not stated)
  -0.91, -0.85
O=C(CN1C(=O)c2cccc3cccc1c23)NCC1CCCO1 (configuration not stated)
  -1.1, 1.5
O=C(Cn1c(=O)c2cccn2c2ccc(F)cc21)NCCc1cccs1
  ·, -0.7
COC(=O)CSc1cc(C)nc(N)n1
  -2, 0.49
COc1cccc(Nc2nnc(C(C)(C)C)c(=O)[nH]2)c1
  -0.61, ·
CCCNc1nc(Nc2ccc(C)c(Cl)c2)c2cnn(C)c2n1
  ·, 2.1
CCCS(=O)(=O)N1CCCc2ccc(NS(=O)(=O)c3c(C)c(C)cc(C)c3C)cc21
  ·, 0.16
CCN(CC)CCNC(=O)C1CCN(c2ccc(-c3cccs3)nn2)CC1
  ·, 0.34
CCCCOc1ccc(Cc2c(O)nc(SC)[nH]c2=O)cc1
  0.71, -0.04
CC1=C(C(=O)OC(C)C)C(c2ccccc2Br)CC(=O)N1 (configuration not stated)
  -1.4, 1.5
CCc1ccc(-c2cc(C)no2)cc1S(=O)(=O)N1CC(C)Oc2ccccc21 (configuration not stated)
  ·, 1.1
Cc1ccc(-c2c(N3CCN(c4ccccn4)CC3)c(=O)c2=O)cc1
  ·, 1.8
Cn1nnc2c(N3CCN(Cc4ccccc4)CC3)ncnc21
  ·, 1.7
CCOC(=O)c1c(C)oc2nc(C)nc(N3CCC(C(=O)OCC)CC3)c12
  ·, 0.2
COc1ccc(Br)cc1/C=C/C(=O)Nc1ccc(O)c(-c2nc3ccccc3o2)c1
  -0.65, ·
Cn1c(=O)n(Cc2nc(-c3ccccc3)no2)c(=O)c2ccccc21
  ·, -0.91
Cc1ccc(S(=O)(=O)c2nnn3c2nc(NCc2ccccc2)c2sccc23)cc1
  ·, -0.89
CCOC(=O)c1c(C)oc2cc(Br)c(OCc3ccc(C(=O)OC)cc3)cc12
  -0.29, -0.73
CCOC(=O)c1c(C)oc2nc(C)nc(NC(CC)CN3CCOCC3)c12 (configuration not stated)
  ·, 1.6
CCN(c1ccccc1)S(=O)(=O)c1ccc(-n2cccn2)cc1
  ·, 1.1
CCOc1cc(-c2ccccc2)nc(N)n1
  -1.5, 0.94
CS(=O)(=O)CCC(C(=O)N1CCN(c2ccccc2)CC1)N1Cc2ccccc2C1=O (configuration not stated)
  ·, 1.4
CC(O)(C#CCN1CCCCC1)c1ccccc1 (configuration not stated)
  0.54, 0.16
CCOC(=O)c1cccc(-n2nnc3c(sc4nc(C)ccc43)c2=O)c1
  -1.2, 1.5
Cc1ccc(-c2nnc3sc(COc4ccccc4C)nn23)cc1
  -1.1, 1.2
O=C(Nc1cc(C(F)(F)F)cc(C(F)(F)F)c1)c1ccc(-c2ccccn2)s1
  -1.1, ·
CCc1cc(Nc2ccc(C)cc2Cl)n2ncnc2n1
  0.45, 0.78
COc1ccc(OC)c(C2CC(c3ccc(Br)cc3)=NN2C(=O)CCCC(=O)O)c1 (configuration not stated)
  0.34, 0.89
CN(CC(=O)NC1CCCC1)S(=O)(=O)c1ccc2c(c1)n(C)c(=O)c(=O)n2C
  -0.23, ·
COc1ccccc1OCCn1c(C2CC(=O)N(c3ccc(F)cc3)C2)nc2ccccc21 (configuration not stated)
  -1, 1.7
O=C1Nc2ccccc2C1=NCCCN=C1C(=O)Nc2ccccc21
  0.03, ·
c1ccc(NC2=Nc3scc[n+]3[B-](c3ccccc3)(c3ccccc3)S2)cc1
  -1.9, ·
NC(=O)c1c(NC(=O)c2cc(-c3ccc(F)cc3)on2)sc2c1CCCC2
  -0.39, ·
COc1ccc(-c2cnc(NCc3cc(Cl)ccc3O)n2C)cc1
  -1.4, -0.77
CC(C)c1cc(C2CCCN2C(=O)c2cnn3c(C(F)(F)F)cc(-c4ccco4)nc23)no1 (configuration not stated)
  ·, -7
CCC(=O)N1c2ccc(S(=O)(=O)CCC(=O)Nc3ccc(F)cc3F)cc2CC1C (configuration not stated)
  ·, 0.55
NC(=O)c1cccc(CC(=O)c2ccc(Cl)cc2)c1
  -1, ·
COCn1c(-c2cccc(Br)c2)nc2ccccc21
  -0.86, 0.19
O=C(CN1C=NS(=O)(=O)c2ccccc21)c1ccc(F)cc1
  ·, 0.9
CCCN(CCC)CCCNC(=O)c1sc2nc3n(c(=O)c2c1C)CCC3
  ·, 3.8
CC(C)C(=O)Nc1nonc1-c1ccc(Br)cc1
  -1.6, 2.6
CCOc1ccc(-c2nc3cc(OC)c(OC)cc3c(=O)o2)cc1
  -3.5, 2.8
CCOc1ccc(-n2c(C)nnc2SCc2nc(-c3ccc(OC)cc3)no2)cc1
  -0.34, 1.9
Cc1cc2oc(C(=O)NCC(c3ccco3)N3CCOCC3)c(C)c2cc1C (configuration not stated)
  2.5, 0.24
CC(=O)N1CCC2(CC1)OC(=O)C(C)=C2C(=O)N1CCN(C)CC1
  ·, 1.8
COc1ccc(-c2nnc3sc(-c4ccncc4)nn23)cc1
  -0.57, ·
CCOC(=O)Cn1c(C2CC(=O)N(CC3CC3)C2)nc2ccccc21 (configuration not stated)
  -2.3, -1.3
Cc1ccc(CSc2ncc(CO)n2Cc2ccccc2)cc1
  ·, 1.5
CC(Cc1ccco1)NS(=O)(=O)c1ccc2c(c1)C(C)(C)C(=O)N2C (configuration not stated)
  ·, -0.64
Cn1cccc1-c1cc2n(n1)CCC(=O)N2CC(=O)O
  0.11, 0

Additional compounds.
Under each structure: CDC25B CDK2 inh, TAR Tat displ
COc1ccc(-c2nc(CNS(=O)(=O)c3ccc(OC)cc3)cs2)cc1
  -8.7, 1.7
CCCCCCn1cnc2c(sc3nc4c(cc32)COC(C)(C)C4)c1=O
  -0.62, -0.52
COc1cccc(N2CCN(S(=O)(=O)c3ccc4c(c3)S(=O)(=O)N=CN4)CC2)c1
  ·, -1.1
Cc1onc(-c2c(F)cccc2Cl)c1C(=O)Nc1nnc(C2CC2)s1
  0.1, ·
O=c1[nH]c2cc3c(cc2c(=O)n1CCc1nc(-c2ccccn2)no1)OCO3
  ·, 0.41
Cc1nn(C)c(NC(=O)Nc2ccc(Br)cc2)c1C1=CCCCC1
  1.8, 0.91
COc1cccc(C2C(C#N)=C3N=C(N)c4ccccc4N3C3=C2C(=O)CC(C)(C)C3)c1OC (configuration not stated)
  -1.9, -1.9
NC(=O)c1cc(S(=O)(=O)NCC2CCN(CCc3cccs3)CC2)cs1
  ·, -0.16
COc1cccc(N2C(=O)N(c3ccccc3OC)C3CS(=O)(=O)CC32)c1 (configuration not stated)
  -1.6, 2.2
Fc1ccc(-c2cc(N3CCCCC3)on2)cc1
  -0.88, 0.36
Cc1ccc(NS(=O)(=O)c2cn(C)cn2)cc1Cl
  ·, 1.4
CCC(Sc1nc2ncccc2[nH]1)C(=O)Nc1ccc(Br)cc1 (configuration not stated)
  ·, 1.9
COc1cccc(-c2cn3cc(-c4ccc(-c5ccccc5)cc4)n(C)c3n2)c1
  ·, 0.01
CN1C(=O)C2CCCCN2c2ccc(C(=O)NCc3ccc4c(c3)OCO4)cc21 (configuration not stated)
  ·, 1
CN(C)CCCNC(=O)N1c2ccccc2Sc2ccccc21
  -2, ·
Cc1nnc2c3ccccc3nc(Nc3ccccc3F)n12
  ·, 0.22
Cn1c(Cn2c(=O)sc3ccccc32)nnc1SCc1ccc(Cl)cc1
  1.2, ·
Cc1nc2nc(C(F)(F)F)[nH]n2c(=O)c1Cc1cccc(Cl)c1
  -1.9, -1.9
Cc1nc(SCc2cc(=O)c3cccc(Cl)c3[nH]2)n[nH]1
  ·, 1.7
CCOc1ccc(Br)cc1C1N2CC3(C)CN1CC(C)(C2)C3O (configuration not stated)
  -1.4, -0.89
CCOC(=O)c1cnc(SCC(=O)N(C)C2CCCCC2)nc1N
  ·, 0.07
FC(F)(F)c1nnc2sc(Cc3ccc(Cl)cc3)nn12
  -0.82, 2.4
Cc1ccc(C2C=C(c3ccccc3)Nc3nc(NC(=O)c4cccs4)nn32)cc1 (configuration not stated)
  -1.3, ·
COc1cc(NC(=O)C2=C(C)OCCS2)c(Cl)cc1C(=O)NCC1CCCO1 (configuration not stated)
  ·, 0.89
O=C(OCc1ccco1)c1cnc(Nc2ccc(OC(F)(F)F)cc2)nc1C(F)(F)F
  -1.1, ·
COc1nc(-c2ccccc2)ccc1-c1noc(-c2cccc(C)c2)n1
  -0.41, 0.06
CS(=O)(=O)c1nsc(S(C)(=O)=O)c1C(N)=O
  0.83, ·
Cc1cc(C)cc(NS(=O)(=O)c2ccc(-c3cnc(C)o3)cc2)c1
  ·, 1.9
CC1(C)CC(=O)C2=C(C1)Nc1ccc3ccccc3c1C2c1ccccc1F (configuration not stated)
  -1.3, -0.11
Cc1ccnc(NC(=O)CSc2ccccn2)c1
  -0.52, ·
CCCc1nn2c(=O)cc(COc3ccc(Cl)c(C)c3)nc2s1
  -0.18, 0.98
CCCN1CCN(c2nn3nnnc3c3ccccc23)CC1
  -0.93, 0.73
Cn1c(C(=O)N2CCCC2)cc2sc(Cl)cc21
  -1.5, ·
CCC(C)(NC)c1nnnn1-c1ccc(Cl)cc1 (configuration not stated)
  ·, 1.6
CC1(C)Cc2ccccc2C(C(=O)c2ccccc2)=N1
  -0.68, 0.4
Clc1ccc(-c2csc3ncnc(NC4CCCC4)c23)cc1
  -1.1, 1.9
Cc1cc(-c2ccc(C)c(S(=O)(=O)Nc3ccc(Br)c(C)c3)c2)on1
  ·, 0.8
Cc1ccc(C)c(S(=O)(=O)c2cn(C)c3cc(N4CCCCC4)c(F)cc3c2=O)c1
  ·, -1.8
CN(C)C(=O)c1ccc(S(=O)(=O)N2CCc3ccccc32)s1
  ·, 1.6
CCOc1ccc(-n2nnc(-c3nc(-c4cccnc4)no3)c2N)cc1
  ·, -1.4
CSc1nc(-c2cnccn2)nc(C2CC2)c1C#N
  0.33, ·
CC1CCCCN1CCn1cnc2c([nH]c3ccc(F)cc32)c1=O (configuration not stated)
  -0.08, 0.8
CCOc1nc(-c2ccc(C)cc2)ccc1-c1noc(C)n1
  -0.38, 2.1
CC(=O)OC1CCC2(C)C(=CCC3C2CCC2(C)C3CC3CC=CCC32C(C)=O)C1 (configuration not stated)
  -1.8, ·
COc1ccc(N2C(=O)CC(Nc3ccc(N4CCOCC4)cc3)C2=O)cc1 (configuration not stated)
  2.6, 0.18
Clc1ccc(-c2nnc(C3CC3)o2)cc1
  -1.6, ·
O=C(CN1C(=O)CCc2cc(Br)ccc21)N1CCN(c2ncccn2)CC1
  ·, 1.2
Cc1cccc(NC(=O)C2CC(=O)N(c3ccc(Br)cc3)C2)n1 (configuration not stated)
  -1.1, -1.2
O=C(c1ccc2c(c1)CCO2)N1CC=C(c2ccccc2)CC1
  -1.7, ·
Cn1c(=O)c2[nH]c(N3CCC(C(=O)O)CC3)nc2n(C)c1=O
  -0.86, 0.84

The list goes on.
Under each structure: CDC25B CDK2 inh, TAR Tat displ
CC(=O)N1c2ccccc2CC1C(=O)NC1CCCCC1 (configuration not stated)
  ·, 2.1
COc1ccc(Nc2nc(-c3ccccn3)cs2)cc1
  -1.8, 1.6
Cc1ccc(CNS(=O)(=O)c2c(C)nc3scc(C)n3c2=O)cc1
  -1.5, -1.1
CC(C)C(=O)NNC(=O)c1csc(-c2cccs2)n1
  -1.1, ·
O=C(Nc1cccnc1)c1cccc(S(=O)(=O)N2CCOCC2)c1
  0.02, ·
O=[N+]([O-])c1ccc(OCc2ccccc2)nc1
  -1.9, ·
Cc1ccc(-c2ccc(=O)n(CCc3ccccc3)n2)cc1S(=O)(=O)N1CCCC1
  0.8, 1.4
CCOc1ccc(NC(=O)N2CC=C(n3c(=O)[nH]c4ccccc43)CC2)cc1
  -1.9, 0.26
Cc1nc(/N=C/N(C)C)c(Br)cc1Br
  -1.2, ·
COc1ccc(-c2csc(-c3cccnc3)n2)cc1
  -1.3, -0.69
CCCN1C(=O)c2cc(C(=O)N3CCN(C4CCCCC4)CC3)nn2CC1(C)C(=O)NC1CCCC1 (configuration not stated)
  ·, 0.87
Cc1cc(-n2cc3c(c2-c2ccccc2)c(=O)n(C)c(=O)n3C)no1
  -2, 0.24
COc1cc(OC)c(N(C)C(=O)c2nn(C)c3c2COc2ccccc2-3)cc1Cl
  -1.5, -0.33
CCOc1ccc(-n2ccc(=O)c(C(=O)Nc3sc4c(c3C#N)CCCC4)n2)cc1
  -0.19, -0.26
CCOc1cc(C(F)(F)F)c(C(=O)N(C)Cc2ccc(Cl)cc2)cn1
  -1.3, ·
Cc1cc(Nc2ccc(F)cc2C)n2nc(-c3ccco3)nc2n1
  ·, 1.2
COC(=O)c1cc(S(=O)(=O)Nc2cccc(F)c2)c[nH]1
  ·, 2.1
